Screening data deposited in PubChem by several laboratories.
PKD1 inh = blocks activity of human protein kinase D1; PKD1 kinase fluorescence polarization assay; inhibition, %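 (about 10 µM by stock and volumes)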; 200,000 compounds, 0.056% hits;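 active = inhibition of 50% or more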;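 note: controls were vehicle for no effect and a reference inhibitor for full effect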
Target sequence (Q15139 whole entry, looked up): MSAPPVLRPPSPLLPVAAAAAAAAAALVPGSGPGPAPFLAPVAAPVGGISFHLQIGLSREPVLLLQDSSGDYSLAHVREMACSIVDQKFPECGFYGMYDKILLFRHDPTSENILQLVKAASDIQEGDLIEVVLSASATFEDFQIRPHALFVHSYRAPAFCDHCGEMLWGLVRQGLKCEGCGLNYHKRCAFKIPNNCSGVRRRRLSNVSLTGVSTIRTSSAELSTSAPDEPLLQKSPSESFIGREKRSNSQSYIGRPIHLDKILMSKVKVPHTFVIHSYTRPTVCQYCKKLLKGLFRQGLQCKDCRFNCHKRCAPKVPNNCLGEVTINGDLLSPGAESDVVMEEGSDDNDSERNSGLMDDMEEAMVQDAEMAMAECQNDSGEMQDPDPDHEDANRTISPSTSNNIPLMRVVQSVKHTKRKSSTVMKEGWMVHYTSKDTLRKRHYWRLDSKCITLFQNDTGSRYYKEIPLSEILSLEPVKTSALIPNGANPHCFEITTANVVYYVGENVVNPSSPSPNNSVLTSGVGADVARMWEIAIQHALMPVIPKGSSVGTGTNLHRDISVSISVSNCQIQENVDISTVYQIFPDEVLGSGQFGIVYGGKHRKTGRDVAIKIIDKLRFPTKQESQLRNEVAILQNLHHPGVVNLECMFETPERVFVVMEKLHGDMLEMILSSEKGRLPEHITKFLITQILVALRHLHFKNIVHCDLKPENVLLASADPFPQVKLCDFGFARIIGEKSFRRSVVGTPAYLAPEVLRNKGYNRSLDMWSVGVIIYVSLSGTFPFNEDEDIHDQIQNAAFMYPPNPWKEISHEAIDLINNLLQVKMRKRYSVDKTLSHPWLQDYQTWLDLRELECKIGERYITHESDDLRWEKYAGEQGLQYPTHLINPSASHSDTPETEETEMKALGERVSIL
HSV replic up = increases HSV replication in cells; HSV replication augmentation in cells, fold increase; maximum fold increase; 220,000 compounds, 0.005% hits; AID 1956;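 active = peak rise of 1.5-fold or more in the series; inconclusive = self-fluorescent or not available for retest; tested in PC3 cells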;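 note: first round at 10 µM; read as green reporter fluorescence; hits show the peak of a series up to 25 µM; 1 = signal of infected wells without compound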
GALR2 agonist = GALR2 (human) receptor agonism | O43603 | GALR2-expressing cells, agonist activation read-out | activation, %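 (tested at 5 µM)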 | 140,000 compounds, 0.48% hits | AID 803;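 active = above mean plus 3 SD of all compounds, about 5% in these data, not always enough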;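 note: 0% = vehicle buffer wells and 100% = reference agonist at full effect; tested in CHO reporter cells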
RGS16-Gao = regulators of human RGS16-Galphao interaction; O15492+P09471; bead-based flow cytometry RGS16-Galphao binding, fluorescence; actives lie on both sides; binding response (% of control), % at 10 µM; 220,000 compounds, 0.38% hits; AID 1441;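 active = below 25% or above 175%, edge rows of some plates excepted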;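 note: Galphao activated by GDP with aluminum fluoride before binding; 100% = wells without compound and 0% = beads without RGS; some results beyond the cut were filed as inactive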
INS promoter inh = TRM-6 insulin promoter activity inhibition. inhibition, % at 2 µM. AID 1273. TRM-6 cells (human fetal islet line), insulin promoter-eGFP reporter, imaging; reporter expression induced with tamoxifen. 130,000 compounds, 0.9% hits;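 active = inhibition above the mean plus 3 SD, with well images judged a real hit on visual review, cut at about 60% in these data, passing the limit was not always enough; inconclusive = inhibition over the cutoff but images rejected on review; inactive = inhibition not above the cutoff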
INS promoter inh cell count = also measured in INS promoter inh; calls as there; normalized cell count, %; measured here: cell count, toxicity; reference of the scale not given here;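 cells exposed to compound for 48 h; stained nuclei by imaging scaled within each plate; lower means fewer cells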
HSV replic up primary fold = recorded beside HSV replic up, whose call it bears; fold increase; compound at 10 µM; measured here: primary screen fold increase 10 uM; tested in PC3 cells;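 GFP signal in the first replicate; 1 = infected wells without compound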
* marks the source's active call; other numbers are inactive results; i = inactive; ? = inconclusive; . = not tested or not shown.

Every second line gives: GALR2 agonist	RGS16-Gao	INS promoter inh cell count	INS promoter inh	HSV replic up primary fold	PKD1 inh	HSV replic up
CCC/C(C)=N/NC(=O)c1ccccc1O
 : -0.3	105	111	33	0.84	6	i
CCc1nc2oc3ccccc3c(=O)c2c(=O)n1-c1ccccc1
 : 0.5	90	.	.	0.89	-11	i
COc1ccc(NC(=O)Cn2nnc(-c3ccccc3NC(=O)C3CC3)n2)cc1
 : -0.1	104	.	.	0.88	-2	i
O=C(c1cnn(-c2ccccc2)c1)c1ccccc1O
 : -0.4	97	.	.	1.2	-5	i
COc1ccc(CCNC(=O)Cc2c(Cl)cccc2Cl)cc1
 : .	77	64	-100	0.89	-9	i
O=C(CSc1nc2ccccc2s1)N1c2ccccc2Sc2ccc(C(F)(F)F)cc21
 : -0.4	79	155	-36	1.1	13	i
CCOC(=O)CSC1=C(C#N)C(c2ccccc2F)C(C(C)=O)=C(C)N1 (stereo not drawn)
 : 1.2	103	.	.	1	5	i
COc1ccc(N2C(=O)CC(c3ccc(OC(C)C)cc3)C2=O)cc1 (stereo not drawn)
 : .	106	.	.	0.94	-10	i
O=C(CSc1nncs1)Nc1ccc2c(c1)OCO2
 : .	102	131	-8	1.1	9	i
Cc1cccc(-n2c(Cc3cc(=O)[nH]c(=O)[nH]3)nnc2SCC(=O)Nc2cccc(C(F)(F)F)c2)c1
 : .	100	111	13	1.2	-3	i
S=C(Nc1cccc(Cl)c1)NC1CC2CCCC(C1)N2C1CCCC1 (stereo not drawn)
 : -1.0	105	86	-59	0.79	-14	i
CCOC(=O)c1c(NC(=O)CSc2nnc(C)c(=O)[nH]2)sc2c1CCCC2
 : -1.9	107	104	30	0.99	-3	i
CCc1ccc(OCCNC(=O)c2ccccc2SCc2ccccc2)cc1
 : -1.4	102	59	-29	.	3	.
C=CCn1c(O)c(C2=c3ccccc3=NC2=O)s/c1=N/c1nccs1
 : -1.3	96	.	.	.	3	.
O=C(NC1CCCCC1)N1CCSC1=Nc1ccccc1
 : -2.0	105	.	.	1.1	-6	i
Cc1cc(C)n(-c2ccc(-n3ccnc3)nn2)n1
 : 1.2	96	.	.	0.93	6	i
Clc1ccc(Nc2nc3cccnc3s2)cc1
 : .	101	.	.	0.95	5	i
CCc1ccc(OCC(=O)OC2CCS(=O)(=O)C2)cc1 (stereo not drawn)
 : -0.5	101	.	.	0.75	3	i
O=C(CCSc1nc(-c2ccc3c(c2)OCO3)cc(C(F)(F)F)n1)NCc1ccccc1
 : -2.7	76	98	62	0.88	1	i
COc1ccccc1NC(=O)C(=O)N1CCCC1
 : .	101	85	40	0.85	-1	i
CCn1c(SCC(=O)N2CCCc3ccccc32)nc2c(c1=O)SC(C)C2 (stereo not drawn)
 : .	89	.	.	0.82	-7	i
FC(F)(F)COc1nc(N2CCCCC2)nc(N2CCNCC2)n1
 : -2.1	33	157	45	1	-3	i
C/C(=N/NS(=O)(=O)c1ccc(Br)cc1)c1ccc(NC(=O)c2ccc(C)o2)cc1
 : -4.0	106	76	-15	0.91	-2	i
CCCCCCCC(=O)OCC(O)CO (stereo not drawn)
 : -1.2	87	96	19	0.95	-4	i
CC(=O)Nc1nc2n(n1)C(c1ccc(F)cc1)C=C(c1ccccc1)N2 (stereo not drawn)
 : -2.3	98	94	6	.	-2	?
Cc1ccc(NC(=O)c2nc[nH]c2C(=O)NCC(=O)OC(C)(C)C)cc1
 : .	95	.	.	0.85	.	i
c1ccc2c(c1)oc1c(NCc3ccc4c(c3)OCO4)ncnc12
 : -0.1	110	97	-22	0.86	-3	i
Cc1cccc(NC(=S)NN2CCN(C)CC2)c1C
 : -0.8	86	119	-28	0.86	-3	i
Cn1nnnc1SCC(=O)NCc1cccc(C(=O)O)c1
 : -2.3	99	.	.	1.1	-10	i
O=C(CSc1nc(-c2ccc(F)cc2)nc2ccc(F)cc12)Nc1cccc(C(=O)O)c1
 : .	100	.	.	0.97	0	i

Part of the list above in order of count of non-hydrogen atoms, lowest first.
Every second line gives: GALR2 agonist	RGS16-Gao	INS promoter inh cell count	INS promoter inh	HSV replic up primary fold	PKD1 inh	HSV replic up
CCC/C(C)=N/NC(=O)c1ccccc1O
 : -0.3	105	111	33	0.84	6	i
c1ccc2c(c1)oc1c(NCc3ccc4c(c3)OCO4)ncnc12
 : -0.1	110	97	-22	0.86	-3	i
CCOC(=O)CSC1=C(C#N)C(c2ccccc2F)C(C(C)=O)=C(C)N1 (stereo not drawn)
 : 1.2	103	.	.	1	5	i

Next section.
Every second line gives: GALR2 agonist	RGS16-Gao	INS promoter inh cell count	INS promoter inh	HSV replic up primary fold	PKD1 inh	HSV replic up
CC(=O)Nc1cc(-c2ccc(F)cc2)[nH]n1
 : .	115	67	-50	0.93	1	i
Cc1cc(C)c2sc(N(CCCN(C)C)C(=O)CN3C(=O)c4ccccc4C3=O)nc2c1
 : .	101	.	.	0.87	2	i
CCOC(=O)C1(Cc2cccc(F)c2)CCN(Cc2ccc(COC)o2)CC1
 : .	96	.	.	0.97	.	i
C=CCC1(NC(C)c2ccccc2)CCCCC1 (stereo not drawn)
 : -0.9	123	40	3	1.1	-16	i
COc1ccccc1NC(=O)C1CCCCC1
 : -1.6	100	105	-33	.	-3	.
COc1ccccc1NC(=O)c1ccc(-n2cccn2)nc1
 : 0.4	96	126	2	0.84	-1	i
O=C(NCc1cccs1)c1ccc(S(=O)(=O)N2CCCCC2)cc1
 : .	101	90	31	0.85	1	i
CCCn1c(SCC(=O)NC(=O)NCc2ccco2)n[nH]c1=O
 : -0.7	99	121	17	0.87	-5	i
Cc1ccccc1C(=O)Nc1cccc(NC(=O)c2ccc(-c3ccc(Br)cc3)o2)c1
 : -2.1	104	.	.	.	0	.
COc1cccc(/C=C2\N=C3CCCCCN3C2=O)c1
 : -0.9	98	126	23	0.92	-4	i
O=C1c2ccccc2C(=O)N1CC(=O)N1c2ccccc2Sc2ccc(C(F)(F)F)cc21
 : 0.3	101	.	.	1	-6	i
CCCCCCc1nnc(N)s1
 : -1.0	106	94	-14	1	-8	i
O=C(O)CSc1nnc(-c2ccc3c(c2)OCO3)o1
 : -3.5	112	138	11	0.89	-9	i
C=C(C)[C@@H]1CC=C(CN2CCC(CCOC)(C(=O)OCC)CC2)CC1
 : .	99	105	-250	1	7	i
COC(=O)c1cc2c(cc1Cl)N1CCCCCC1=NS2(=O)=O
 : .	99	.	.	1.2	.	i
CCCCOC(=O)Nc1ccc(N2CCCCC2)cc1
 : -2.6	102	109	-136	1	5	i
COc1ccc(C(=S)N2CCN(C)CC2)cc1Br
 : -1.8	100	91	-45	0.96	-2	i
CC(C)SCc1cc(N2CCCC2)nc(-c2ccccc2)n1
 : .	101	52	-75	0.93	-9	i
Cc1ccc(C(=O)NC(=S)N2CCN(c3ccc([N+](=O)[O-])cc3)CC2)cc1
 : -0.2	67	131	3	1.1	-8	i
Cn1c(N2CCCC2)nc2c1c(=O)n(Cc1ccc(F)cc1)c(=O)n2C
 : -0.7	100	.	.	0.81	-2	i
CC1(C)Cc2nc(N)c(C(=O)NCCO)cc2CO1
 : -1.2	99	106	0	1.1	-3	i
COc1ccc(Cn2c(C)ccc2C)cc1
 : -1.5	84	98	3	0.92	0	i
Cc1ccc(OCC(=O)Nc2ccc(F)cc2)cc1C
 : -2.3	97	168	66	0.98	10	i
COc1cc(S(=O)(=O)N2CCOCC2)ccc1NC(=O)COC(=O)COc1ccccc1
 : .	107	.	.	0.88	3	i
Cc1nc(SCC(=O)Nc2cc(C(N)=O)cc(C(N)=O)c2)c2c(C)c(C)sc2n1
 : .	58	.	.	1.2	.	i
COc1cc(-c2nc(CN3CCCN(C(=O)c4ccco4)CC3)c(C)o2)ccc1F
 : .	105	151	-54	1.1	0	i
COC(=O)c1c(-c2ccccc2)csc1NC(=O)CSc1ncnc2sc(C)c(C)c12
 : -1.8	111	74	3	1	-8	i
CC1=C(C(=O)OCC2CCCO2)C(c2ccc(Cl)cc2)NC(=O)N1 (stereo not drawn)
 : .	92	72	9	1	8	i
CCC(C)OC(=O)C1=C(C)NC2=C(C(=O)C(C(=O)OC)C(C)C2)C1c1ccc(N(C)C)cc1 (stereo not drawn)
 : -1.0	84	97	37	1	-3	i
COc1cccc(-c2cc(C(=O)Nc3c(C)nn(Cc4ccccc4C)c3C)no2)c1
 : 0.4	103	.	.	1	-2	i
COc1ccc(NC(=O)CSc2ccc3c(c2)OCCO3)cc1OC
 : -4.2	117	94	35	0.91	1	i
Cc1ccc(-n2c(C)cc(/C=N/NC(=O)c3ccncc3)c2C)c(C)c1
 : -0.1	108	69	44	1.1	-2	i
Cn1c(=O)n(Cc2ccccc2)c(=O)c2c1nc1n2CCCN1CCc1ccccc1
 : 0.9	108	89	-66	0.95	-3	i
COc1ccc(N2CCN(c3c(S(=O)(=O)c4ccccc4)cnc4ccc(OC)cc34)CC2)cc1
 : -0.9	101	.	.	0.81	3	i
O=C(CSc1ncnc2sccc12)Nc1ccccc1
 : .	98	.	.	0.92	-1	i
CCOC(=O)c1c(NC(=O)C2C3CCC(O3)C2C(=O)O)sc(C)c1-c1ccc(C)cc1 (stereo not drawn)
 : -2.4	93	119	-4	0.91	0	i
CN1CCN(NC(=O)c2cn(-c3ccccc3)nc2-c2ccc(OC(F)F)cc2)CC1
 : .	103	.	.	0.79	1	i
CC1(C)CC=C(NNC(=O)c2cccnc2)C(=O)C1
 : .	97	.	.	0.96	-4	i
COc1ccc(-c2cc([C@H]3[C@H]4C=CC[C@@H](C)[C@@H]4C(=O)N3Cc3ccccc3)ccc2F)cc1OC
 : .	93	.	.	0.97	.	i
O=C(COc1ccccc1)N(CCc1ccccc1)c1nc(-c2ccc(F)cc2)cs1
 : -0.5	102	110	-12	.	-3	.
C=CCn1c(SC/C=C/c2ccccc2)nnc1-c1sc(N)nc1C
 : -1.9	97	85	-58	0.92	-2	i
COC(=O)c1c(NC(=O)CC2SC(N)=NC2=O)sc2c1CCC(C(C)(C)C)C2 (stereo not drawn)
 : 1.1	104	130	-18	0.78	-3	i
CCN(CC)C(=O)c1sc2nc(-c3ccncc3)[nH]c(=O)c2c1C
 : 0.1	100	.	.	.	-1	.
Cc1ccc(S(=O)(=O)/N=C(\N)Nc2nc(C)c3cc(C)ccc3n2)cc1
 : -2.1	107	.	.	0.94	-5	i
CCOc1cc(/C=C2/N=C(c3ccc(C(C)(C)C)cc3)OC2=O)cc(Cl)c1OS(C)(=O)=O
 : -0.4	51	92	-25	1	-8	i
O=C(Nc1ccc(S(=O)(=O)Nc2ncccn2)cc1)c1cncc(Br)c1
 : 0.1	102	.	.	1	3	i
COc1ccc(C(=O)CSc2nc(C)cc(C)n2)cc1[N+](=O)[O-]
 : .	100	114	26	1	-3	i
CC1=C(C(=O)Nc2ccccc2C(F)(F)F)C(c2ccc(C)s2)NC(=S)N1 (stereo not drawn)
 : .	101	.	.	0.93	-9	i
Cc1cc(N2CCCCC2)nc2ccc(NC(=O)CCC(=O)NCCC(C)C)cc12
 : -1.5	104	45	-48	0.83	-6	i
O=C(O)c1ccc2c(c1)C(=O)N(NC(=O)c1ccccc1)C2=O
 : -2.1	105	.	.	0.83	4	i
COc1ccc2oc(=O)c(-c3cn4ccc(C)cc4n3)cc2c1
 : .	99	.	.	0.95	-4	i
